# Assay outcomes (PubChem)
# TRPV1 potentiator: human TRPV1 potentiation | Q8NER1 | potentiation, % at 8.33 µM | TRPV1-expressing cells, Fluo-8 calcium influx, capsaicin EC20 potentiation; host cell line not named in the record; control for the full effect not named in the record | 320,000 tested, 0.02% active; active means potentiation above 80%; inconclusive means 30% to 80%; inactive means below 30%; further: 0% is about no effect
#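 Fluo-8 calcium influx in TRPV1-expressing cells, kinetic read (ex 480/em 520 nm). Compound added and read 3 min for agonist activity, followed by capsaicin at EC20 final and 2 min further read for enhancement.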
# D2 agonist: activates the human D2 dopamine receptor; P14416; DiscoveRx PathHunter D2 beta-arrestin, luminescence, 90 min; 100% = 57 uM dopamine signal; activation, % (no concentration beside the values); 360,000 tested, 0.084% active; AID 624465; in the data active = activation above about 40%; inconclusive = about 15% to 40%; inactive = below about 15%; further: compound concentration not given in the record; the text of the record calls up to 30% inactive
#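 DiscoveRx PathHunter D2 beta-arrestin cells (2,100/well) attached overnight, then compound-stimulated 90 min at 37 C in HBSS/10 mM HEPES/0.1% Tween-20 buffer; beta-galactosidase complementation read by luminescence after 1 h at ambient temperature. Dopamine 57 uM final (EC100) as control.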
# CtBP-E1A inh: inhibitors of CtBP/E1A interaction; AlphaScreen GST-E1A/His-CtBP binding, 1536-well; active compounds read low; control for the full effect not named in the record; activity change, % (no concentration beside the values); 340,000 tested, 0.49% active; in the data active means activity change below about -65%; inconclusive means about -30% to -65%; inactive means above about -30%; further: on the % scale 0 is the no-effect control and ±100 the full control effect
#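 Steps: dispense buffer (Tris pH 8.0, NaCl 300 mM, TCEP 1 mM, BSA, Tween 20); add 5X protein mix (GST-E1A, His-CtBP, 125 nM each); pin 23 nL compound; 2 h at 37 °C, dark; add 5X beads (50 ug/mL); 1 h; read.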
# Sfp inh: Sfp phosphopantetheinyl transferase inhibition; Q9F4F7; Biochemical Sfp PPTase activity, qHTS; Potency, µM, without a hit: max response, negative = inhibition, most hits filed as inhibitors; 310,000 tested, 3.5% active; AID 1490; active means well fitted inhibition curve with a large enough effect; inconclusive means small, poorly fitted or top-dose-only effect, or another doubt; inactive means no such curve, though single readings can be large or run the other way;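 further: the enzyme is Sfp with the accession as filed and its product quenches rhodamine fluorescence; potency means the concentration at half of the fitted maximal effect; 0% = enzyme reaction without inhibitor and -100% = no enzyme wells; top concentration of the series not given in the record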
#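 Compounds were incubated with enzyme (final 15 nM) for 15 min at room temperature before substrate addition started the reaction. Fluorescence at 525 nm excitation, 598 nm emission was recorded immediately and after 30 minutes.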
# Six1-Eya2 blk: Six1/Eya2 interaction inhibition; 360,000 tested, 0.56% active; Q15475+O00167; activity change, % (concentration not given with the values); AlphaScreen GST-Six1/His-Eya2 binding, biochemical; active compounds read low; control for the full effect not named in the record; in the data active = activity change below about -65%; inconclusive = about -30% to -65%; inactive = above about -30%; further: on the % scale 0 is the no-effect control and ±100 the full control effect
# Target sequence (O00167 whole entry, looked up): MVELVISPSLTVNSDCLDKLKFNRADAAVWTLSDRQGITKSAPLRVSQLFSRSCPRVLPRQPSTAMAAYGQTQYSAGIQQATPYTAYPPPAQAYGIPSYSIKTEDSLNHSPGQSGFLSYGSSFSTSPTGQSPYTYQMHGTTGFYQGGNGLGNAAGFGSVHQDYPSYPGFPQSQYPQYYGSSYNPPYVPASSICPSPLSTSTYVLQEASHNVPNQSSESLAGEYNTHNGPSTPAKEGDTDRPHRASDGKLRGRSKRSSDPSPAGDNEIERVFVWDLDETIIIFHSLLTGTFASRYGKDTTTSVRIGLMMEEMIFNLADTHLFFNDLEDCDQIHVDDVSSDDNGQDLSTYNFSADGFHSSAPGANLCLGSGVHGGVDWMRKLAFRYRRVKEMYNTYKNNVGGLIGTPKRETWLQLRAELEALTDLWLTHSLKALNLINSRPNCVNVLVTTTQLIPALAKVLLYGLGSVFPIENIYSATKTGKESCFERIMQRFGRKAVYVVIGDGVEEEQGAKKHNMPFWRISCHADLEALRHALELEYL
# Target sequence (Q15475 whole entry, looked up): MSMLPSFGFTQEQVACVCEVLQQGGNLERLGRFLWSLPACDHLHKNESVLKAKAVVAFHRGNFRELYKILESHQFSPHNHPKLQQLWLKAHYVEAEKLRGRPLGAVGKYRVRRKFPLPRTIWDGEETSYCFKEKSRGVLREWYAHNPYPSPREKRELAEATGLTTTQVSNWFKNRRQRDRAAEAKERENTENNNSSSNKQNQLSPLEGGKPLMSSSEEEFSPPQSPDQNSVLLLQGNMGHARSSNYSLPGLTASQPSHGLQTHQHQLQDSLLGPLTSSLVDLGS
#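 AlphaScreen luminescence read after one hour at 37 °C in darkness. Pin-transferred compounds met GST-Six1 and His-Eya2 protein (5X stock 250 nM/500 nM) plus glutathione donor and Ni-chelate acceptor beads (5X, 50 ug/mL).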
# D2 potentiator: positive allosteric modulators of human D2 dopamine receptor. P14416. DiscoveRx D2 beta-arrestin cells, luminescence, 90 min; 100% = 57 uM dopamine signal. potentiation, % (no concentration beside the values). 360,000 tested, 0.23% active. AID 624464; active = potentiation of 50% or more; inconclusive = 30% to 50%; inactive = 30% or less;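 further: compound concentration not given in the record; tested on top of an EC20 dose of dopamine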
#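 D2 cells co-treated with compound plus 50 nM dopamine (EC20) for 90 min at 37 deg C to detect potentiation. Beta-arrestin recruitment was read as enzyme-fragment luminescence after 1 h at ambient temperature. Full response was set by 57 uM dopamine.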
# PINK1 expr mod: PINK1 expression modulation | PINK1 immunofluorescence, high-content cytometry, 24 h | 410,000 tested, 0.2% active | Potency, µM (series often up to 76.6 µM), without a hit: at the top dose activation (PINK1 increase), usual class: activators | AID 624263; active = well fitted activation curve with a large enough effect; inconclusive = small, poorly fitted or top-dose-only effect; inactive = flat fitted curve, though single readings scatter; cell line not stated here;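 further: potency means the concentration at half of the fitted maximal effect; % of control where 0% means no effect; nearly all actives have a fitted effect of over 65% in size; a mitochondrial uncoupler was the plate control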
#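 Stable cell line, 250 cells/well, 12 h attachment; compounds pinned at 5 concentrations, 24 h; CCCP control. Fixed with nuclear dye, primary antibodies 12 h at 10 degrees C, secondary plus cell stain; laser-scanning cytometer read.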
# * hit, by the source's call; u = inconclusive; x = not tested or not shown; [ ] = another dose, or the depositor's remark.
SMILES,TRPV1 potentiator,D2 agonist,CtBP-E1A inh,Sfp inh,Six1-Eya2 blk,D2 potentiator,PINK1 expr mod
CC(Oc1ccc(Cl)cc1)C(=O)N1CCN(C(=O)c2ccco2)CC1 (stereo unspecified),-4,-4.3,-11,x,-1,21,-2.7%
O=C(c1ccc(COc2ccc(F)cc2)o1)n1cccn1,x,-2.5,9,-11%,3,-8,0.9%
CCCCSc1nc(O)c(C2OC(=O)c3c2ccc(OC)c3OC)c(=O)n1C (stereo unspecified),-4,-0.4,-2,15%,-4,1,-1.1%
CC(C)(CNc1ccc([N+](=O)[O-])cc1C#N)N1CCOCC1,16,-1.2,-1,13%,-5,-33,5.1%
CN(C)/C=C1\N=C(c2cccnc2Oc2ccc(Cl)cc2)OC1=O,-5,9.2,-1,-24%,-11,1,0.8%
CC(C)(C)n1nc2c(c1NC(=O)Cc1cccc3ccccc13)CS(=O)C2 (stereo unspecified),x,-0.4,3,-14%,2,0,1.0%
O=C(CN1C(=O)NC(Cc2ccccc2)C1=O)Nc1ccc(OC(F)F)cc1 (stereo unspecified),-4,0.5,-8,x,-12,-6,0.2%
COc1cccc(CNC(=O)c2csc3c2CCCC3)c1,6,2.8,-9,10%,-4,-1,1.1%
CC(CN)(NS(=O)(=O)c1ccccc1)c1ccccc1 (stereo unspecified),5,-1.3,-2,7%,7,-29,2.7%
CSc1ncccc1C(=O)OCCCC(=O)c1ccc(F)cc1,x,1.9,18,x,53,-21,0.4%
Nn1c(SCC(=O)N2CCCCCC2)nnc1-c1ccncc1,-4,1.6,6,12%,0,2,u
CCC(C)NC(=O)NC(=O)CSc1nnc(-c2ccccc2F)n1C1CC1 (stereo unspecified),1,1.5,7,5%,-4,-1,-2.1%
COc1cccc(-c2nc(-c3ccncc3)no2)c1,5,-5.7,13,5%,0,1,0.0%
O=C(OC(C(=O)NC1CCCCC1)c1ccc(C(F)(F)F)cc1)c1ccco1 (stereo unspecified),-4,-5.8,5,x,-3,-6,9.8%
COc1ccc(NC(=O)c2nnn(CC(=O)Nc3ccccc3OC)c2N)c(OC)c1,1,-2.9,1,11%,-8,-2,3.9%
O=C(Nc1ccccc1Br)C(=O)N1CCCC1,-6,-0.8,6,3%,4,-10,2.2%
Cc1ccc(C(=O)NCCc2nnc3ccc(NCCCN4CCOCC4)nn23)cc1,11,-1.1,-7,14%,-3,-9,-0.5%
COCc1cc(C)nc(OCC(=O)N/N=C/c2cc(C)n(-c3c(C)cccc3C)c2C)c1C#N,5,-2.6,-13,3%,-14,-4,3.4%
Cc1ccc(N=Cc2c(O)n(-c3nccs3)c(=O)c3ccccc23)c(C)c1,7,-6.6,2,8%,-4,-20,5.6%
CN(C(=O)CSc1ncnc2sc3c(c12)CCCC3)C1CCS(=O)(=O)C1 (stereo unspecified),x,0.2,-6,x,2,-5,-1.8%
O=C(NCc1ccccn1)c1ccc(OC2CCN(Cc3ccc(F)cc3F)CC2)cc1,-7,-0.2,0,4%,-7,-16,-0.1%
COc1cc(C(F)(F)F)c(C(=O)N(C)Cc2cccc(Cl)c2)cn1,-6,-4.2,9,11%,17,-7,0.2%
Cc1nc2ccccn2c1-c1csc(Nc2cccc(O)c2)n1,7,0.2,0,10%,-5,-9,0.2%
CCCc1cc(NCC2CCCO2)n2c(nc3ccccc32)c1C#N (stereo unspecified),-9,-3.9,-4,13%,4,2,-3.4%
COc1ccc(S(=O)(=O)N2CCc3ccccc3C2)cc1OC,-19,2.3,13,-3%,5,-5,-1.9%[38.3 µM]

# Individual results from the entries so far:
# D2 agonist, CCCCSc1nc(O)c(C2OC(=O)c3c2ccc(OC)c3OC)c(=O)n1C (stereo unspecified) stands at -0.4
# PINK1 expr mod, O=C(OC(C(=O)NC1CCCCC1)c1ccc(C(F)(F)F)cc1)c1ccco1 (stereo unspecified) stands at 9.8%
# TRPV1 potentiator, COc1cc(C(F)(F)F)c(C(=O)N(C)Cc2cccc(Cl)c2)cn1 stands at -6
# TRPV1 potentiator, O=C(NCc1ccccn1)c1ccc(OC2CCN(Cc3ccc(F)cc3F)CC2)cc1 stands at -7
# D2 potentiator, CSc1ncccc1C(=O)OCCCC(=O)c1ccc(F)cc1 stands at -21
# D2 potentiator, CC(CN)(NS(=O)(=O)c1ccccc1)c1ccccc1 (stereo unspecified) stands at -29
# Sfp inh, COc1ccc(NC(=O)c2nnn(CC(=O)Nc3ccccc3OC)c2N)c(OC)c1 stands at 11%

# 4 entries from above in another layout:
> O=C(Nc1ccccc1Br)C(=O)N1CCCC1
  TRPV1 potentiator: -6	D2 agonist: -0.8	CtBP-E1A inh: 6	Sfp inh: 3%	Six1-Eya2 blk: 4	D2 potentiator: -10	PINK1 expr mod: 2.2%

> COc1ccc(S(=O)(=O)N2CCc3ccccc3C2)cc1OC
  TRPV1 potentiator: -19	D2 agonist: 2.3	CtBP-E1A inh: 13	Sfp inh: -3%	Six1-Eya2 blk: 5	D2 potentiator: -5	PINK1 expr mod: -1.9%[38.3 µM]

> CC(Oc1ccc(Cl)cc1)C(=O)N1CCN(C(=O)c2ccco2)CC1 (stereo unspecified)
  TRPV1 potentiator: -4	D2 agonist: -4.3	CtBP-E1A inh: -11	Sfp inh: x	Six1-Eya2 blk: -1	D2 potentiator: 21	PINK1 expr mod: -2.7%

> CC(CN)(NS(=O)(=O)c1ccccc1)c1ccccc1 (stereo unspecified)
  TRPV1 potentiator: 5	D2 agonist: -1.3	CtBP-E1A inh: -2	Sfp inh: 7%	Six1-Eya2 blk: 7	D2 potentiator: -29	PINK1 expr mod: 2.7%

# More compounds follow:
SMILES,TRPV1 potentiator,D2 agonist,CtBP-E1A inh,Sfp inh,Six1-Eya2 blk,D2 potentiator,PINK1 expr mod
O=C(N/N=C/c1ccc(O)cc1)c1cc(C23CC4CC(CC(C4)C2)C3)[nH]n1,-6,0.8,-1,6%,-7,-2,8.1%
O=C1c2ccsc2SCCN1Cc1ccc(Cl)cc1,-3,-1.6,5,14%,2,-1,0.1%
COc1cccc(NC(=S)N(CCN2CCCCC2)Cc2ccco2)c1,-7,-3.3,-18,17%,-2,-4,2.2%
CCOC(=O)c1cn(Cc2ccccc2)nc1-c1ccccc1,x,-1.3,15,x,14,-4,-0.5%
Cc1c(C#N)sc2nc(-c3ccccc3)nc(N3CCCC3)c12,5,1.3,5,0%,8,0,1.7%
COc1ccc([C@H]2/C=C\CN(S(=O)(=O)c3cccc4cccnc34)[C@@H](C)C(=O)N2Cc2ccc(F)cc2)cc1,x,0.4,-5,x,-11,-13,-1.1%
COc1ccc(OC)c(NC(=O)NCCc2cccc(Cl)c2)c1,2,-0.4,5,4%,-13,-9,5.2%
O=C(Nn1c(COc2ccccc2)nc2ccccc2c1=O)C(Cl)(Cl)Cl,14,-4.3,x,11%,3,-11,3.0%
N#Cc1ccsc1NC(=O)COc1ccc(-c2nnco2)cc1,4,-3.7,u,-29%,u,-17,-0.7%
COc1ccc(/C=C/C(=O)OCC(=O)Nc2ccc(Cl)cc2F)cc1S(=O)(=O)N1CCOCC1,-2,-5.2,5,6%,-4,-31,20%
CCOc1ccc(N(CC(=O)Nc2ccccc2)S(C)(=O)=O)cc1,-3,-3.0,0,0%,10,-5,0.6%
CC(C)CN(C(=O)CC1OC(=O)c2ccccc21)c1c(N)n(Cc2ccccc2)c(=O)[nH]c1=O (stereo unspecified),2,-2.3,5,x,4,-7,0.5%
Cc1cc(C)n(C(=O)Cn2nc(C(F)F)cc2C)n1,2,-0.1,3,7%,5,3,1.1%[38.3 µM]
CC(C)C1N(C(=O)N(C)C)CCN1S(=O)(=O)c1ccccc1 (stereo unspecified),u,-0.5,0,-3%,-2,1,0.5%
O=C(O)CNS(=O)(=O)c1cccc2nsnc12,-1,0.3,-2,-1%,5,-7,-1.9%
CN1OC[C@@H]2CN(Cc3ccccc3)[C@H](c3ccc(N4CCCCC4)cc3)C[C@@H]21,x,-6.9,u,x,u,-12,1.2%
Cc1cc(C)nc(NS(=O)(=O)c2ccc(NC(=O)c3ccc(S(=O)(=O)N(C)C)cc3)cc2)n1,-12,-3.2,-9,7%,9,-6,1.7%
O=C(Oc1ccc(C(=S)N2CCOCC2)cc1Br)c1ccccc1F,-9,-3.7,7,22µM*,u,-18,2.6%
CCCOc1ccc(N2C(=O)CC(SC(=NCC)Nc3cccc(F)c3)C2=O)cc1 (stereo unspecified),16,1.4,-8,-1%,0,3,2.2%
COc1cc(-c2cc3nc(NCCOc4ccccc4)ccn3n2)cc(OC)c1OC,x,14,-11,x,-7,13,-0.1%
COCCSc1ccccc1C(=O)NCc1ccco1,6,-3.3,4,18µM*,6,-3,x
O=c1c(C/C=C/c2ccccc2)c(O)ccn1Cc1ccc(Cl)cc1Cl,5,-1.9,6,13%,-2,-20,1.1%
CC(=O)Nc1ccc(S(=O)(=O)N2CCN=C2SCc2ccc([N+](=O)[O-])cc2)cc1,-21,-2.8,-10,-3%,-16,-7,1.1%
COc1cccc(CN2CCN(c3nc4nonc4nc3NC3CC3)CC2)c1,1,-0.1,-13,17%,-5,-1,2.4%
CCc1noc(C)c1C(=O)N1CCN(S(=O)(=O)c2c(C)cc(C)cc2C)CC1,4,9.7,-7,x,0,-4,-1.6%
CN(C)C(=O)[C@H]1C[C@H]1[C@@H](O)[C@H](CO)NC(=O)[C@H](COCc1ccccc1)NC(=O)OC(C)(C)C,-6,0.2,1,7%,2,-5,2.5%
COc1ccc(-c2cn3c(C)c(C(=O)Nc4cccc(NC(C)=O)c4)sc3n2)cc1,x,-0.1,-7,-30%,2,-2,x
c1ccc2c(NCCc3c[nH]c4ccccc34)c3ccccc3nc2c1,-2,12,x,-6%,-27,-48,1.9%

# Grouped by structure: those above containing a tert-butyl group.
SMILES,TRPV1 potentiator,D2 agonist,CtBP-E1A inh,Sfp inh,Six1-Eya2 blk,D2 potentiator,PINK1 expr mod
CC(C)(C)n1nc2c(c1NC(=O)Cc1cccc3ccccc13)CS(=O)C2 (stereo unspecified),x,-0.4,3,-14%,2,0,1.0%
CN(C)C(=O)[C@H]1C[C@H]1[C@@H](O)[C@H](CO)NC(=O)[C@H](COCc1ccccc1)NC(=O)OC(C)(C)C,-6,0.2,1,7%,2,-5,2.5%
